Assay outcomes deposited in PubChem by several laboratories.
PKD1 inh = inhibitors of human PKD1 kinase, biochemical, fluorescence polarization; PKD1 kinase fluorescence polarization assay; inhibition, %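 (about 10 µM by stock and volumes)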; 0.056% of 200,000 active; AID 797, 2007;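 active means inhibition of 50% or more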;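 further: controls were vehicle for no effect and a reference inhibitor for full effect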
Insulin prom inh = inhibitors of insulin promoter-driven GFP, primary screen, imaging, TRM-6 cells (human fetal islet line), eGFP reporter, cell count; reporter expression induced with tamoxifen; inhibition, % at 2 µM; 0.9% of 130,000 active;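 active means inhibition above the mean plus 3 SD, with well images judged a real hit on visual review, cut at about 60% in these data, passing the limit was not always enough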
RGS16-Gao HTS = modulators of RGS16 binding to Galphao, primary screen, biochemical, human proteins, multiplexed bead flow cytometry; Regulator of G-protein signaling 16 (Homo sapiens) + Guanine nucleotide-binding protein …; bead-based flow cytometry RGS16-Galphao binding, fluorescence; actives lie on both sides; binding response (% of control), % at 10 µM; 0.38% of 220,000 active; AID 1441, 2008;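 active means below 25% or above 175%, edge rows of some plates excepted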;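 further: Galphao activated by GDP with aluminum fluoride before binding; 100% = wells without compound and 0% = beads without RGS; some results beyond the cut were filed as inactive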
Target sequence (O15492 whole entry, looked up): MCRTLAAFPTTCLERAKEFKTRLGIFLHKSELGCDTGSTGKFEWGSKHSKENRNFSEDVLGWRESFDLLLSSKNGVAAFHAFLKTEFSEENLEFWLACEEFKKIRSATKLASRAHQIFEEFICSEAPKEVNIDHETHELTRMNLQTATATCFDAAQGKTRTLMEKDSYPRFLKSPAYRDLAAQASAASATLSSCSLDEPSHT
Target sequence (P09471 whole entry, looked up): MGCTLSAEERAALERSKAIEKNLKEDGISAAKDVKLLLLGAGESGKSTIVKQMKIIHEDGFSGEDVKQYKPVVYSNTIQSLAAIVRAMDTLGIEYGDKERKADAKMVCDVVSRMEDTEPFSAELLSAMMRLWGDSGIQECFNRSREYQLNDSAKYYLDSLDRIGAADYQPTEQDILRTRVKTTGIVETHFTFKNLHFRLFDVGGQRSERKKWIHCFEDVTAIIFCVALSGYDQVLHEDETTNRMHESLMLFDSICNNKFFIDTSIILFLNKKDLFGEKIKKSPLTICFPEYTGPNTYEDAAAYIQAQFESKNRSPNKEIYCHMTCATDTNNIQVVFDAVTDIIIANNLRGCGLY
HSV replic up = enhancers of HSV replication in host cells, fold increase, host cell viability; HSV replication augmentation in cells; maximum fold increase; 0.005% of 220,000 active; AID 1956, 2009;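 active means peak rise of 1.5-fold or more in the series; tested in PC3 cells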;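 further: first round at 10 µM; read as green reporter fluorescence; hits show the peak of a series up to 25 µM; 1 = signal of infected wells without compound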
GALR2 ag = GALR2 receptor agonists, primary screen, cell-based; 0.48% of 140,000 active; Galanin receptor type 2 (Homo sapiens), O43603; activation, %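 (tested at 5 µM)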; AID 803, 2007; GALR2-expressing cells, agonist activation read-out;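 active means above mean plus 3 SD of all compounds, about 5% in these data, not always enough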;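 further: 0% = vehicle buffer wells and 100% = reference agonist at full effect; tested in CHO reporter cells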
Target sequence (O43603 whole entry, looked up): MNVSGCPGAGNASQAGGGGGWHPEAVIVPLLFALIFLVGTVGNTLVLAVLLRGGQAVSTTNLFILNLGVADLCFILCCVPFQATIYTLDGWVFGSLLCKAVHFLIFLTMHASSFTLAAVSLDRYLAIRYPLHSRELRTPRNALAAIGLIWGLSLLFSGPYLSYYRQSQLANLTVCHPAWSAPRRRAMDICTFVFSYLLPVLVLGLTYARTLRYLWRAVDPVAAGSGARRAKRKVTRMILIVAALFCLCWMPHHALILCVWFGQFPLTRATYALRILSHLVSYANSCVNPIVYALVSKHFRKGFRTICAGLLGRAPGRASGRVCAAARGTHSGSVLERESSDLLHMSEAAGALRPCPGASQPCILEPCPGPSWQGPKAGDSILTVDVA
Insulin prom inh cell count = further read-out of Insulin prom inh, marked with its call; normalized cell count, %; measured here: cell count, toxicity; reference of the scale not given here;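 cells exposed to compound for 48 h; stained nuclei by imaging scaled within each plate; lower means fewer cells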
HSV replic up primary fold = further read-out of HSV replic up, marked with its call; fold increase; compound at 10 µM; measured here: primary screen fold increase 10 uM; tested in PC3 cells;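 GFP signal in the first replicate; 1 = infected wells without compound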
* marks the source's active call; other numbers are inactive results; i = inactive; · = not tested or not shown.

Start of the listing, in advance (2 entries):
Screens in order – PKD1 inh	Insulin prom inh	Insulin prom inh cell count	RGS16-Gao HTS	HSV replic up	HSV replic up primary fold	GALR2 ag
COC(=O)Cn1c(=NC(=O)C(C)C)sc2c(C)cc(C)cc21
    15	·	·	105	i	0.98	-2.4
O=C(CC1SC(N2CCCCC2)=NC1=O)Nc1cccc(C(F)(F)F)c1 (centres undefined)
    -3	42	59	106	i	0.92	0.2

All compounds of this part, from the start:
Screens in order – PKD1 inh	Insulin prom inh	Insulin prom inh cell count	RGS16-Gao HTS	HSV replic up	HSV replic up primary fold	GALR2 ag
COC(=O)Cn1c(=NC(=O)C(C)C)sc2c(C)cc(C)cc21
    15	·	·	105	i	0.98	-2.4
O=C(CC1SC(N2CCCCC2)=NC1=O)Nc1cccc(C(F)(F)F)c1 (centres undefined)
    -3	42	59	106	i	0.92	0.2
CC(=C\c1ccco1)/C=C(\C#N)C(=O)NCCc1c[nH]c2ccccc12
    1	·	·	93	i	1.1	-1.8
O=C(C1=C[C@@H]2[C@H]3C(=O)N(c4ccccc4)C(=O)[C@H]3[C@@H](C(=O)c3ccc(Cl)cc3)N2C=C1)c1ccccc1
    -5	·	·	99	i	1.1	-2.3
O=C(COC(=O)c1cccs1)c1ccccc1
    -6	9	78	92	i	0.98	-1.2
CCN1CCN(CCNC(=O)Nc2ccc([N+](=O)[O-])cc2)CC1
    -3	·	·	99	i	1.1	·
COc1ccc(CCNC(=O)c2ccc(CS(=O)(=O)c3ccc(Cl)cc3)o2)cc1OC
    -6	-8	154	105	i	0.86	-2.5
COc1ccc(NC(=S)N2CCN(C/C=C/c3ccccc3)CC2)cc1
    2	·	·	101	i	0.95	0.6
Cc1ccc2c(c1)C1CN(C)CCC1N2CC(=O)N(C)c1ccccc1 (centres undefined)
    -4	9	57	102	i	1.1	-1.2
Cc1[nH]c2ccccc2c1SCC(=O)N1CCCCC1
    2	29	68	15	i	1.1	·

Whole records from above. Order of screens: PKD1 inh, Insulin prom inh, Insulin prom inh cell count, RGS16-Gao HTS, HSV replic up, HSV replic up primary fold, GALR2 ag
CC(=C\c1ccco1)/C=C(\C#N)C(=O)NCCc1c[nH]c2ccccc12 across the screens: 1, ·, ·, 93, i, 1.1, -1.8
O=C(COC(=O)c1cccs1)c1ccccc1 across the screens: -6, 9, 78, 92, i, 0.98, -1.2
O=C(CC1SC(N2CCCCC2)=NC1=O)Nc1cccc(C(F)(F)F)c1 (centres undefined) across the screens: -3, 42, 59, 106, i, 0.92, 0.2

The list continues:
Screens in order – PKD1 inh	Insulin prom inh	Insulin prom inh cell count	RGS16-Gao HTS	HSV replic up	HSV replic up primary fold	GALR2 ag
Cc1cc(C)n(/N=C/c2c[nH]c3ccccc23)c(=O)c1C#N
    0	-42	130	106	i	0.91	-1.4
COc1ccc2[nH]c(C)c(C(=O)CN3CCN(C/C=C/c4ccccc4)CC3)c2c1
    1	42	57	102	i	1	-2.9
COc1ccc(Cl)cc1NC(=S)N1CCCC1
    -2	·	·	100	i	0.96	·
Cc1ccc(C(=O)CCC(=O)Nc2cccc(C(F)(F)F)c2)cc1C
    1	13	81	·	i	0.9	-0.3
Cc1nnc2sc(-c3cccc(NC(=O)c4ccc(-c5cccc(Cl)c5)o4)c3)nn12
    -12	25	89	·	·	·	1.1
C=CCn1c(Cc2cccs2)nnc1SCC(=O)Nc1ccc(OC)c(OC)c1
    0	-27	102	101	i	0.74	-5.7
CC(C)Nc1nc(-c2ccccc2)nnc1-c1ccccc1
    -1	·	·	95	i	0.98	·
C=CCNc1c2c(nc3ncnn13)CC(C)CC2 (centres undefined)
    0	·	·	101	i	0.99	·
COC(=O)/C=C1\SC(=NC(=O)c2ccc(C)cc2)NC1=O
    1	-3	126	95	i	0.96	·
CCn1c(Cc2ccccc2)nnc1SCC(=O)NC1CCCC1
    0	·	·	100	i	0.95	·
CCc1nnc(NC(=O)CSc2nc3ccccc3s2)s1
    -6	26	149	104	i	0.91	-2.3
COc1ccc(NS(=O)(=O)c2cccc(C(=O)OCC(=O)Nc3cc(C)on3)c2)cc1
    -10	26	63	99	i	0.86	-1.2
COc1ccc(N2CCN(C(=O)CSc3ccccc3)CC2)cc1
    -4	19	116	103	i	1.1	-1.9
CC1(C)OC(=O)C(=NNc2ccc(Cl)cc2)C(=O)O1
    0	·	·	106	i	0.82	-2.6
CCOC(=O)CSc1nnc(Cc2ccc(OC)cc2)n1-c1ccccc1
    2	22	134	100	i	0.89	-1.8
COc1ccc(OC)c(NC(=O)CSc2nc(N)c(-c3ccccc3)c(=O)[nH]2)c1
    -4	43	153	93	i	0.99	-0.7
NS(=O)(=O)c1ccc(-c2ccc(/C=C3\SC(=S)N(C4CCS(=O)(=O)C4)C3=O)o2)cc1 (centres undefined)
    ·	·	·	90	i	1.2	·
Cc1ccc2[nH]c(=O)c(CN(CC3CCCO3)S(=O)(=O)c3cccc4nsnc34)cc2c1 (centres undefined)
    -2	43	132	71	i	0.8	2.5
CCOC(=O)C(=O)Nc1cccc(C(=O)OCC)c1
    -13	-22	133	103	i	0.92	0.3
O=C(c1cccc(Cl)c1)N1CCN(Cc2ccccc2F)CC1
    -4	-31	112	122	i	0.97	-4.5

3 neighbouring compounds from above, quoted:
Screens in order – PKD1 inh	Insulin prom inh	Insulin prom inh cell count	RGS16-Gao HTS	HSV replic up	HSV replic up primary fold	GALR2 ag
Cc1ccc2[nH]c(=O)c(CN(CC3CCCO3)S(=O)(=O)c3cccc4nsnc34)cc2c1 (centres undefined)
    -2	43	132	71	i	0.8	2.5
CCOC(=O)C(=O)Nc1cccc(C(=O)OCC)c1
    -13	-22	133	103	i	0.92	0.3
O=C(c1cccc(Cl)c1)N1CCN(Cc2ccccc2F)CC1
    -4	-31	112	122	i	0.97	-4.5

(cont.)
Screens in order – PKD1 inh	Insulin prom inh	Insulin prom inh cell count	RGS16-Gao HTS	HSV replic up	HSV replic up primary fold	GALR2 ag
CC(C)CCNC(=O)[C@@H](NC(=O)c1c(F)cccc1F)C(C)C
    -9	-94	96	98	i	0.61	-3.3
CCN(C(=O)CSc1nc2cc(Cl)ccc2c(=O)n1Cc1ccco1)C1CCS(=O)(=O)C1 (centres undefined)
    -1	·	·	103	i	0.89	·
O=C(CCC(=O)OCC(=O)c1ccc(C(F)(F)F)cc1)OCC(=O)c1ccc(C(F)(F)F)cc1
    ·	·	·	116	i	0.74	·
FC(F)(F)c1cccc(Cn2nnnc2-c2ccc(Cl)cc2)c1
    -10	-78	108	112	i	0.97	-1.5
O=C1CC(c2ccccc2)SC(N(c2ccccc2)c2ccccc2)=N1 (centres undefined)
    -7	·	·	72	i	1.1	0.6
CCc1ccc2[nH]c(=O)c(CN(CCCN3CCOCC3)C(=O)Nc3ccccc3)cc2c1
    -7	·	·	95	i	0.92	0.1
CCn1cc(CN2CCc3c([nH]c4ccccc34)C2c2ccc(F)c(OC)c2)c(C)n1 (centres undefined)
    -5	·	·	110	i	0.96	·
COc1cccc(-c2nnc(SCC(=O)OC(C)C)n2N)c1
    7	·	·	225	i	0.87	-2.3
CCC(c1nnnn1CCOC)N1CCN(Cc2ccccc2)CC1 (centres undefined)
    0	-8	136	99	i	0.92	-2.5
O=C(Nc1ccc(Cl)cn1)c1ccccc1[N+](=O)[O-]
    -5	-31	141	99	i	0.9	·
CCC1(C)C(Nc2c(C)cccc2C)=NC(=S)N1c1ccc(NC(C)=O)cc1 (centres undefined)
    -3	·	·	99	i	1	-2.5
Cc1ccc(N(C(C)C(=O)Nc2c(C)n(C)n(-c3ccccc3)c2=O)S(C)(=O)=O)cc1C (centres undefined)
    6	-22	97	101	i	1	·
O=C(O)c1cccc(Oc2ccc([N+](=O)[O-])cc2)c1
    -5	5	113	13	i	0.99	-0.4
Cc1ccc(S(=O)(=O)N2CCCN(S(=O)(=O)c3ccc(C(F)(F)F)cc3)CC2)cc1
    -3	·	·	104	i	0.77	0.1
O=S1(=O)N=C(Nc2ccc(S(=O)(=O)N3CCCCC3)cc2)c2ccccc21
    -3	·	·	94	i	0.9	-1.6
Cc1cccc(N2CN=c3s/c(=C\c4ccccn4)c(=O)n3C2)c1
    ·	·	·	98	i	1.1	·
COc1cccc(CC2(CO)CCN(C(=O)NC3CCCCC3)CC2)c1
    -1	·	·	100	i	0.98	·
CCCN(C(=O)c1ccco1)c1nnc(-c2ccncc2)s1
    -5	-162	115	80	i	0.97	-1.0
CCN1CCN(C(=O)c2sc3nc(C)nc(N4CCC(C)CC4)c3c2C)CC1
    -11	-81	135	106	i	0.94	-1.0
Cc1noc(/C=C/c2ccco2)c1S(=O)(=O)N1CCC(C(=O)N2c3ccccc3CC2C)CC1 (centres undefined)
    2	·	·	32	·	·	-3.4
Cc1ccc2nc(-c3ccsc3)c(NC3CCCC3)n2c1
    -4	·	·	99	i	0.99	·
CCc1ccc2oc(-c3cc(N=Cc4cccc(OC)c4O)ccc3O)nc2c1
    -4	·	·	99	i	0.69	-2.4
N#Cc1c(-c2ccco2)nc(NCC2CCCO2)[nH]c1=O (centres undefined)
    -2	·	·	96	i	0.99	0.2
Cc1nc2scc(-c3ccco3)c2c(=O)n1/N=C/N(C)C
    5	11	112	97	i	0.79	0.8
Cn1c(SCC(=O)Nc2ccccc2)nc(O)cc1=O
    -9	-31	99	104	i	1.1	-1.1
CCn1c(COc2cccc(C)c2)nnc1SCC(=O)CC(=O)Nc1ccccc1OC
    -6	·	·	97	i	1	-0.5
COc1cccc(C(C(=O)NC(C)(C)C)N(C(=O)CCC(=O)Nc2cc(C)on2)C2CC2)c1OC (centres undefined)
    2	·	·	107	i	1.1	0.2
COCCn1c(C)cc(C(=O)COC(=O)c2cncc(Br)c2)c1C
    -5	13	90	97	i	1	-3.1
CCc1nnc(NC(=O)[C@@H](NC(=O)c2cc(OC)cc(OC)c2)C(C)C)s1
    -4	·	·	19	i	1	·
NC(N)=NC(N)=NCCc1ccccc1
    -19	5	77	105	i	0.8	-0.1

2 entries from above, reformatted:
SMILES	PKD1 inh	Insulin prom inh	Insulin prom inh cell count	RGS16-Gao HTS	HSV replic up	HSV replic up primary fold	GALR2 ag
Cc1ccc2nc(-c3ccsc3)c(NC3CCCC3)n2c1	-4	·	·	99	i	0.99	·
CCc1ccc2oc(-c3cc(N=Cc4cccc(OC)c4O)ccc3O)nc2c1	-4	·	·	99	i	0.69	-2.4

More structures follow:
Screens in order – PKD1 inh	Insulin prom inh	Insulin prom inh cell count	RGS16-Gao HTS	HSV replic up	HSV replic up primary fold	GALR2 ag
Cc1onc(NC(=O)c2ccc([N+](=O)[O-])o2)c1Br
    ·	·	·	103	i	0.94	·
Cc1cccn2c(=O)c3cc(C(=O)N4c5ccccc5CC4C)n(C)c3nc12 (centres undefined)
    1	·	·	100	·	·	0.3
CCOC(=O)c1c(C)[nH]c2c1cc(O)c1ccccc12
    -4	63	90	105	i	0.95	-1.4
N#C/C(=C\c1ccc[nH]1)C(=O)c1ccccc1
    ·	·	·	95	i	1	·
CCOc1cc(/C=N/NC(=O)c2ccc(CN3CCOCC3)cc2)ccc1OCc1ccccc1
    1	-14	124	108	i	0.9	0.2
COCCCN1C(=O)C(=O)/C(=C(/O)c2ccc(OC)cc2)C1c1cccc(OC)c1 (centres undefined)
    -18	-10	121	101	i	0.94	0.4
Clc1ccccc1OCCn1ccnc1
    1	41	109	123	i	1.1	-1.0
Cc1cc(C)c(C#N)c(SCC(=O)N2CCCCC2)n1
    -3	-31	75	100	i	0.98	-4.0
Nc1c(C(=O)c2ccc(Br)s2)oc2ccccc12
    -9	·	·	65	i	1	0.5
O=C(COC(=O)CCc1nc2ccccc2c(=O)[nH]1)NC1CCS(=O)(=O)C1 (centres undefined)
    -4	·	·	103	i	1	·
COc1ccc(-c2ccc(CCC(=O)O)n2CC2CCCO2)cc1 (centres undefined)
    5	-17	148	102	i	0.99	·
S=c1[nH]nc(-c2ccccc2)n1/N=C/c1cccs1
    -5	12	72	99	i	0.92	-3.2
O=C(COC(=O)c1cc(-c2ccncc2)nc2ccccc12)Nc1ccc2c(c1)OCO2
    -6	10	109	111	i	1	-1.2
Cc1cc(NC(=O)CSc2ccc(-c3ccccc3)nn2)no1
    1	-34	199	103	i	0.92	0.8
COc1cccc(C2C3=C(CC(C)(C)CC3=O)Nc3cc4c(cc32)OCO4)c1 (centres undefined)
    -4	·	·	101	i	1	-1.9
C/C(=N\NC(=S)Nc1c(C)cccc1C)c1cc2ccccc2o1
    -1	28	116	100	i	0.97	-0.9
CCc1ccc(S(=O)(=O)/N=C2/C=C(Sc3ncn[nH]3)C(=O)c3ccccc32)cc1
    -6	-169	22	24*	·	·	-0.9
